miR-21 reporter – qHTS Assay for Modulators of miRNAs and/orActivators of miR-21; HeLa miR-21 FLuc reporter, luciferase, 48 h; Potency, µM (series often up to 38.3 µM), inactives show top-dose reporter change, positive = more light; 340,000 tested, under 10 active; active = well fitted rising curve with a large enough effect; inconclusive = small, poorly fitted or top-dose-only effect; inactive = no such curve, though single readings can be large or run the other way;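 note: % of control where 0% means no effect; miR-21 action dims this reporter so a rising signal means less miR-21 action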
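HeLa miR-21-FLuc reporter line, endogenous miR-21; 2000 cells/well in DMEM/10% FBS; compound titration up to ~40uM final, 48 h, 37 degree Celsius; luciferase detection reagent, 15 min lysis, CCD luminescence.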
Rango release inh – qHTS Assay for Inhibitors of RanGTP induced Rango (Ran-regulated importin-beta cargo) - Importin beta complex dissociation. hit rate 0.071% among 340,000. Snurportin-1 (Homo sapiens) + GTP-binding nuclear protein Ran (Homo sapiens) + Importin …. AID 540253, 2011. Potency, µM (top dose mostly 46.1 µM), for the others: at the highest dose activity change, negative = inhibition. Biochemical FRET Rango-importin beta, RanGTP-induced dissociation; active means falling FRET ratio curve, often poorly fitted, with flat reads before Ran was added; inconclusive means other falling curves, or compound fluorescence or quenching; inactive means flat or rising ratio curve;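 note: potency is the fitted concentration of half-maximal effect; % of control where 0% means no effect; nearly all actives have a fitted effect of over 45% in size; -100% = wells without RanGTP and RCC1; the record marks most hits as doubtful in a second field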
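Rango (0.1 uM)–importin beta (0.25 uM) complex; RanGTP-RCC1 trigger; 45 min RT; CFP/YFP FRET read.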
GLA inh pH 4.5 – qHTS Assay for Inhibitors of Human alpha-Galactosidase at pH 4.5 | Alpha-galactosidase A (Homo sapiens), P06280 | purified enzyme, 4-MU-alpha-Gal fluorescence, pH 4.5 | activity change, negative = inhibition, % at 105 µM | 230,000 tested, under 10 active | AID 1467, 2008; inconclusive = small, poorly fitted or top-dose-only inhibition, or a rising curve; inactive = flat fitted curve, though single readings scatter; no compound was filed as active;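 note: 0% = full activity with enzyme and -100% = basal without enzyme; dose as in the result columns while the protocol names 77 µM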
Rango-impB inh – qHTS Assay for Inhibitors of Rango (Ran-regulated importin-beta cargo) - Importin beta complex formation; Potency, µM (top dose mostly 92.2 µM), inactives show top-dose inhibition of complex formation; Rango CFP/YFP FRET sensor + importin beta, 45 min; hit rate 0.031% among 340,000; Importin subunit beta-1 (Homo sapiens), Q14974; AID 540263, 2011; active = rising FRET ratio curve, often small or poorly fitted; inconclusive = mostly compound fluorescence or quenching in the first reads; inactive = flat curves in all reads;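 note: potency is the fitted concentration of half-maximal effect; 0% = DMSO wells and 100% = buffer wells lacking importin beta; nearly all actives have a fitted effect of over 15% in size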
Target sequence (Q14974 whole entry, looked up): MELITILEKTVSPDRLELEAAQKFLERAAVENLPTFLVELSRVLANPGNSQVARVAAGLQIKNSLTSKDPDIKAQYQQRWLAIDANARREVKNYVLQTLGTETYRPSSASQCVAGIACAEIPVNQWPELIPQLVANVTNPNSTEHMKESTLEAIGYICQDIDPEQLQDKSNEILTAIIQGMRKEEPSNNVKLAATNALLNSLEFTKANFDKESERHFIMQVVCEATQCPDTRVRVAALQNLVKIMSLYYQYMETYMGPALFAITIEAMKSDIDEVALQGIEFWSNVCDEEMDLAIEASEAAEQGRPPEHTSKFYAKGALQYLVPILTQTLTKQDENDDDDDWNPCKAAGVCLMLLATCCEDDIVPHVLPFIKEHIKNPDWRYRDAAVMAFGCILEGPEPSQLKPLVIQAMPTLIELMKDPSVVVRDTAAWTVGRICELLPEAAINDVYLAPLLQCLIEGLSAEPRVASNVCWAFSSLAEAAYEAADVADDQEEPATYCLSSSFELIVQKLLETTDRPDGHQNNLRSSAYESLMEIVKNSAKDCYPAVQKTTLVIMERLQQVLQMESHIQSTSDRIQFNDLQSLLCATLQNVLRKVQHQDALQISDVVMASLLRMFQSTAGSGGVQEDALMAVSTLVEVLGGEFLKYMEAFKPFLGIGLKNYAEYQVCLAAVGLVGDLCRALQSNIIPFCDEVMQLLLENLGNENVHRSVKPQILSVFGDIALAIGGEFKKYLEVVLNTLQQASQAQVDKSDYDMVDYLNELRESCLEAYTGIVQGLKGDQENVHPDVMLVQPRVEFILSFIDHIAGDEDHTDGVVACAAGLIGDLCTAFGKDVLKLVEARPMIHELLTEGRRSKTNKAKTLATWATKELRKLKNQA
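Inhibition scored from the CFP 486 nm/YFP 530 nm FRET ratio 45 min after adding 0.125 microM importin beta to 50 nM Rango biosensor preincubated 5 min with compound (room temperature, PBS with DTT, Tween-20, BSA). No-importin wells as positive control.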
Numbers without * were called inactive; ? = inconclusive; / = no result given. Not all compounds are listed; the hit share may differ from the screen's.

SMILES	miR-21 reporter	Rango release inh	GLA inh pH 4.5	Rango-impB inh
CC1=C(C(=O)NC(C)CCc2ccccc2)C2(CCC(C)CC2)OC1=O (stereo not given)	1%	1%	-4	0.4%
Cc1ccccc1C1CC(c2ccccc2OC(F)F)Nc2ncnn21 (stereo not given)	-6%	3%	-12	8.7%
CN(CC(=O)Nc1ncn[nH]1)S(=O)(=O)c1ccc(Cl)cc1	1%	-6%	/	-2.9%
CC(C)(C)c1ccc(-c2nnc(NC(=O)c3ccccc3)s2)cc1	-10%	5%	-2	-4.9%
CCOc1ccc(S(=O)(=O)N2CCN(C(=O)c3cc(S(=O)(=O)N4CCOCC4)ccc3C)CC2)cc1	/	-18%	/	0.2%
O=C(Cn1cc2c(n1)CCCC2)NCC1CCCO1 (stereo not given)	-3%	-6%	-7	-3.5%
COc1ccc(NC(=S)Nc2cc(C(F)(F)F)ccc2F)cc1	-2%	-5%	-3	-0.4%
CC1Cc2ccccc2N1C(=O)CN(C)CC(=O)Nc1ccc(F)cc1 (stereo not given)	/	15%	/	-0.3%
O=C(Cn1nnc(-c2ccccc2)n1)NNC(=O)c1ccccc1	1%	0%	3	-2.1%
O=C1NC2(NN1c1ccccc1)C1CC3CC(C1)CC2C3 (stereo not given)	-3%	20%	-1	-1.0%
CCC1(C)Cc2c(sc3nnn(CC(=O)Nc4cccc5ccccc45)c(=O)c23)CO1 (stereo not given)	7%	2%	-3	?
COc1cc(-c2nc(-c3ccc4c(c3)-c3ccccc3S4(=O)=O)c(-c3ccccc3)[nH]2)cc(OC)c1O	18%	-11%	-13	?
CCN(CC)S(=O)(=O)c1cccc(C(=O)N[C@H](C(=O)Nc2nc3ccccc3s2)C(C)C)c1	-44%	-2%	2	-1.0%
C=CCOc1cccc(C2C(C(=O)c3ccco3)=C(O)C(=O)N2CCN(CC)CC)c1 (stereo not given)	0%	-3%	-12	-5.5%
Cc1ccc(S(=O)(=O)NNC(=O)c2cnn(-c3ccccc3)c2C(F)(F)F)cc1	-3%	-1%	2	2.6%
CCc1ccc(NC(=O)Cn2cc([N+](=O)[O-])nc2C)cc1	4%	7%	/	2.8%
O=C(CSCc1ccccc1)Nc1ccc(S(=O)(=O)N2CCOCC2)cc1	-3%	0%	-7	1.4%
COc1ccc(C(C(=O)NC2CCCCC2)N(C(=O)CCl)c2ccc(C)cc2)cc1 (stereo not given)	6%	3%	2	-2.2%
O=C(NCc1cn(-c2ccccc2)nc1-c1ccc(F)cc1)c1cccc([N+](=O)[O-])c1	10%	-15%	12	0.3%
C/C(CC(C)C)=N\NC(=O)Nc1ccccc1	-34%	-8%	3	-1.6%
C#CCOCCOCCOCCNc1nc(N2CCN(C(=O)CCCCCCCCCCNC(=O)Cn3cc(CCCCCN)nn3)CC2)nc(N2CCN(C(=O)CCCCCCCCCCNC(=O)[C@H]([C@@H](C)CC)n3cc(CCCCN=C(N)N)nn3)CC2)n1	/	5%	/	?
Cc1c(NC(=O)c2ccc(Br)o2)c(=O)n(-c2ccccc2)n1C	-7%	1%	-3	3.9%
CCOCc1cc(CN2CCCC(CNC(=O)c3ccco3)C2)ccc1OC (stereo not given)	-4%	-11%	/	-1.3%
O=C1CC/C=C\C[C@@H](CC(=O)N(CCO)Cc2ccccc2)C(=O)N[C@H](Cc2c[nH]c3ccccc23)CO1	/	-11%	/	0.4%
O=C(NNC1=NCCC1)c1ccc(Br)cc1	-2%	-16%	5	0.0%
SMILES	miR-21 reporter	Rango release inh	GLA inh pH 4.5	Rango-impB inh
O=[N+]([O-])c1ccccc1S(=O)(=O)N(CC1CO1)c1ccccc1 (stereo not given)	2%	4%	/	-1.8%
Cc1ccc(NC(=O)Nc2cccc([N+](=O)[O-])c2)nc1	-13%	13%	-7	0.4%
O=C(NCc1ccco1)c1cccc(Br)c1	-2%	3%	/	-3.0%
CC(C)(C)c1ccc(OC(=O)c2ccc(-n3cncn3)nc2)cc1	1%	/	-2	/
COc1ccc(CNC(=O)CCc2nc3cc(S(=O)(=O)N(C)C)ccc3n2C)cc1OC	-4%	6%	5	-0.3%
CCN(CCNC(=O)CN(C)S(=O)(=O)c1cccc2nsnc12)c1ccccc1	2%	16%	4	1.4%
COC(=O)c1c(-c2ccccc2OC)sc2cc3c(cc12)OCO3	/	17%	/	4.0%
CCOc1ccc(NC(=S)NC(=O)c2cnn(CC)c2)c([N+](=O)[O-])c1	0%	-6%	/	-0.6%
O=C(CSc1nnc(-c2ccncc2)n1-c1ccc(Cl)cc1)N1CCOCC1	-12%	-9%	0	-6.1%
COc1ccc(C(=O)NNC(=S)NC(=O)c2ccc(Br)o2)cc1OC	1%	8%	12	-0.6%
O=C(Nc1cccc([N+](=O)[O-])c1)C(=O)N1CCCCC1	-55%	-6%	-2	0.6%
CCS(=O)(=O)N1N=C(c2ccccc2)CC1c1ccc2nccnc2c1 (stereo not given)	-8%	13%	4	-0.8%
C#CCOCCOCCOCCNc1nc(N2CCN(C(=O)[C@H]([C@@H](C)CC)n3cc(CCC(=O)O)nn3)CC2)nc(N2CCN(C(=O)[C@H](C)n3cc(CCCN=C(N)N)nn3)CC2)n1	-4%	-16%	-13	0.3%
Cc1ccc(Cn2cnc3c(nnn3Cc3ccc(Cl)cc3)c2=O)cc1	-1%	7%	2	-3.5%
COc1ccccc1NC(=O)COC(=O)c1cc2c(s1)CCC2	/	-17%	/	-4.1%
O=C(CC(=O)NC1CCCCC1)N/N=C/c1ccccc1Cl	-7%	-8%	-1	3.7%
O=S(=O)(c1ccc(NC2CCCCC2)cc1)N1CCOCC1	1%	2%	-14	4.5%
Cn1nc(C(=O)NCCc2ccc3c(c2)OCCO3)c2ccccc2c1=O	/	-9%	/	-0.7%
Cc1ccc(C(=O)NCC(=O)NC23CC4CC(CC(C4)C2)C3)cc1	-38%	7%	/	0.4%
CCOC(=O)c1ccc(NC(=O)c2nc[nH]c2C(=O)N2CCC(C)CC2)cc1	-1%	32%	6	-3.3%
CC1(C)C2CCC1(C)C(NC(=O)/C=C/c1ccccc1)C2 (stereo not given)	-6%	2%	-2	2.2%
Cc1ccc(N2CCN(CC(O)COC3CCCCC3)CC2)cc1 (stereo not given)	-5%	-8%	1	-0.6%
Cc1nnc(NC(=O)CSc2nnc(Cc3cccn3C)n2C)s1	1%	-3%	12	-2.5%
CC(Sc1nc(N)cc(=O)[nH]1)C(=O)NCC(=O)Nc1ccc(F)c(F)c1F (stereo not given)	/	1%	/	1.8%
CCN(CC)CCNC(=O)c1ccc(NC(=O)/C=C/c2ccc3ccccc3n2)cc1	0%	-6%	/	0.2%

11 entries from above, ordered by length of the SMILES, ascending.
SMILES	miR-21 reporter	Rango release inh	GLA inh pH 4.5	Rango-impB inh
O=C(NCc1ccco1)c1cccc(Br)c1	-2%	3%	/	-3.0%
O=C(CC(=O)NC1CCCCC1)N/N=C/c1ccccc1Cl	-7%	-8%	-1	3.7%
Cc1nnc(NC(=O)CSc2nnc(Cc3cccn3C)n2C)s1	1%	-3%	12	-2.5%
COC(=O)c1c(-c2ccccc2OC)sc2cc3c(cc12)OCO3	/	17%	/	4.0%
O=C(Nc1cccc([N+](=O)[O-])c1)C(=O)N1CCCCC1	-55%	-6%	-2	0.6%
Cc1ccc(Cn2cnc3c(nnn3Cc3ccc(Cl)cc3)c2=O)cc1	-1%	7%	2	-3.5%
CCS(=O)(=O)N1N=C(c2ccccc2)CC1c1ccc2nccnc2c1 (stereo not given)	-8%	13%	4	-0.8%
Cc1ccc(C(=O)NCC(=O)NC23CC4CC(CC(C4)C2)C3)cc1	-38%	7%	/	0.4%
CCN(CCNC(=O)CN(C)S(=O)(=O)c1cccc2nsnc12)c1ccccc1	2%	16%	4	1.4%
CCOc1ccc(NC(=S)NC(=O)c2cnn(CC)c2)c([N+](=O)[O-])c1	0%	-6%	/	-0.6%
COc1ccc(CNC(=O)CCc2nc3cc(S(=O)(=O)N(C)C)ccc3n2C)cc1OC	-4%	6%	5	-0.3%

Next section
SMILES	miR-21 reporter	Rango release inh	GLA inh pH 4.5	Rango-impB inh
O=C(c1ccc2c3n(nc2c1)-c1ccccc1CO3)N1CCCCC1	-20%	-10%	-14	1.0%
Cc1ccc(C(=O)/C=C/Nc2cccc(O)c2)cc1	4%	?	-5	?
CC(=O)c1c(O)c2ccccc2n(C2CCCCC2)c1=O	-2%	-2%	-5	-2.6%
Cc1cc(=O)[nH]c(SCC(=O)NN(c2ccccc2)c2ccccc2)n1	-3%	15%	8	-3.6%
CC(C)N1C(=O)S/C(=C/c2cccnc2)C1=O	-12%	-22%	13	-1.8%
CCOC1=NC(=C(c2ccccc2)c2ccccc2)OC1=O	/	3%	/	3.9%
Cc1cccn2c(=O)c3cc(C(=O)NCCCOC(C)C)sc3nc12	-6%	-14%	/	?
CC(=O)Nc1cccc(NC(=O)C2CCCN2C(=O)Nc2ccc(C)cc2)c1 (stereo not given)	2%	1%	-1	0.3%
CC1C(=O)N(Cc2cccc(F)c2)c2ccccc2N1C(=O)c1ccccc1 (stereo not given)	15%	3%	/	-4.4%
COc1cccc(CC(=O)Nc2nc(-c3ccc(F)c(F)c3)cs2)c1	1%	14%	/	-1.3%
CN(C(=O)COC(=O)c1ccc(-c2ccc(O)cc2)cc1)C1CCS(=O)(=O)C1 (stereo not given)	-13%	12%	-11	?
C/C(=N\NC(=O)c1ccccc1)c1cc2cc([N+](=O)[O-])ccc2oc1=O	1%	9%	-6	0.4%
Cn1[nH]c(=O)c(Cl)c(Cl)c1=O	0%	-13%	-1	-5.3%
Cc1n[nH]c(C)c1S(=O)(=O)N1CCCC(C(=O)Nc2nccs2)C1 (stereo not given)	5%	4%	-6	0.8%
Cc1oc(-c2ccc(Cl)cc2)nc1CN1CCCC(C(=O)NC2CC2)C1 (stereo not given)	-1%	-15%	/	3.1%
CCCCCCCC(=O)OCC(COC(=O)CCCCCCC)OC(=O)CCCCCCC	/	7%	/	-2.4%
C=CC[C@@H](CC(=O)NCCO)C(=O)N[C@@H](COC(=O)[C@@H](CC=C)CC(=O)OC(C)(C)C)Cc1c[nH]c2ccccc12	/	11%	/	0.9%
O=C(Nc1ccc(-c2ccc([N+](=O)[O-])cc2)cc1)c1ccccc1F	-16%	-6%	7	3.7%
Oc1ccccc1-c1nnc(COc2ccccc2)o1	-45%	27%	5	6.6%
CCOc1cc(/C=N/NC(=O)COc2cccc(C)c2)ccc1OC(=O)c1cccs1	0%	0%	-4	-6.9%
OCCN(Cc1cccnc1)Cc1ccccn1	/	-14%	/	1.0%
COc1cccc(NC(=O)CN(C)C(=O)c2cc(S(=O)(=O)N3CCCCCC3)ccc2OC)c1	/	11%	/	2.0%
COc1ccccc1NC(=O)/C=C/c1ccc(OC)c(S(=O)(=O)N2CCOCC2)c1	-13%	0%	-14	-2.7%
O=C(Nc1ccc(C(=O)N2CCOCC2)cc1)c1ccc([N+](=O)[O-])cc1	-8%	25%	/	0.3%
CN1CCC(N(C)S(=O)(=O)c2ccc(F)cc2F)CC1	-2%	11%	/	2.6%
COc1ccccc1C(=O)NCC1(c2ccccc2)CCCC1	12%	0%	5	-0.2%
O=C(Nc1cnn(Cc2ccc(Cl)c(Cl)c2)c1)C12CC3CC(CC(C3)C1)C2	-1%	6%	2	4.5%
COc1cccc(NC(=O)CN(C)C(=O)c2c(C)nn(CC(C)C)c2Cl)c1	/	1%	/	-4.4%
